Screens: PubChem BioAssay, several laboratories
YopH inh: inhibitors of Yersinia enterocolitica YopH tyrosine phosphatase; fluorescence Ex485/Em525; inhibition, %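 (about 10 µM by stock and volumes)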; 140,000 compounds, 0.16% hits;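 active = inhibition of 50% or more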;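 note: controls were vehicle for no effect and minimum signal wells for full effect; inactives centre near -20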
Mtb bLac sens: beta-lactam sensitization of Mtb H37Rv; M. tuberculosis H37Rv growth with meropenem, percent inhibition; hits of this screen are not shown here; inhibition, % at 25 µM; 330,000 compounds, 0.27% hits; AID 434955;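 active = about 74% or more and at least 40 points above the plate without the antibiotic, then above 30% in a dose series; inconclusive = first-round hits that could not be retested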;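 note: growth measured after seven days incubation then overnight dye step; 0% = bacteria only wells and 100% = bacteria with antibiotic; twin plates without the antibiotic show which effects depend on it; some results filed as inactive read as strong as hits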
Mtb H37Rv: M. tuberculosis H37Rv growth inhibitors, H37Rv strain (AID 1626) | M. tuberculosis H37Rv growth inhibition; higher % means a stronger effect | one-dose inhibition, % at 10 µM; IC50 in µM for titrated hits | 220,000 compounds, 0.95% hits;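 active = confirmed in a dose series; inconclusive = inhibition above 80% but not taken into the dose series; inactive = below 80% or under 30% at every dose of the series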;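 note: bacteria incubated seven days before Alamar blue readout; 0% = bacteria only wells and 100% = bacteria with antibiotic wells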
Arbovirus anti: arbovirus infection inhibition | arbovirus infection cell-based antiviral screen | AID 1251 | 200,000 compounds, 0.37% hits | inhibition, % at 10 µM;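 active = inhibition from about 30%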;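 note: bluetongue infection of BSR cells; cell survival read as ATP light after 72 h; 0% = infected wells without compound and 100% = uninfected wells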
RecA splice inh: Mtb RecA intein splicing inhibition; 290,000 compounds, 0.75% hits; inhibition, %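 (about 9 µM by stock and volumes)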; P9WHJ3; cell-free RecA intein splicing, fluorescence; in the data active = inhibition above about 30%; inconclusive = no clear call, values can overlap the other calls;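 note: 0% = vehicle wells and 100% = reference inhibitor control wells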
Target sequence (P9WHJ3 whole entry, looked up, canonical isoform): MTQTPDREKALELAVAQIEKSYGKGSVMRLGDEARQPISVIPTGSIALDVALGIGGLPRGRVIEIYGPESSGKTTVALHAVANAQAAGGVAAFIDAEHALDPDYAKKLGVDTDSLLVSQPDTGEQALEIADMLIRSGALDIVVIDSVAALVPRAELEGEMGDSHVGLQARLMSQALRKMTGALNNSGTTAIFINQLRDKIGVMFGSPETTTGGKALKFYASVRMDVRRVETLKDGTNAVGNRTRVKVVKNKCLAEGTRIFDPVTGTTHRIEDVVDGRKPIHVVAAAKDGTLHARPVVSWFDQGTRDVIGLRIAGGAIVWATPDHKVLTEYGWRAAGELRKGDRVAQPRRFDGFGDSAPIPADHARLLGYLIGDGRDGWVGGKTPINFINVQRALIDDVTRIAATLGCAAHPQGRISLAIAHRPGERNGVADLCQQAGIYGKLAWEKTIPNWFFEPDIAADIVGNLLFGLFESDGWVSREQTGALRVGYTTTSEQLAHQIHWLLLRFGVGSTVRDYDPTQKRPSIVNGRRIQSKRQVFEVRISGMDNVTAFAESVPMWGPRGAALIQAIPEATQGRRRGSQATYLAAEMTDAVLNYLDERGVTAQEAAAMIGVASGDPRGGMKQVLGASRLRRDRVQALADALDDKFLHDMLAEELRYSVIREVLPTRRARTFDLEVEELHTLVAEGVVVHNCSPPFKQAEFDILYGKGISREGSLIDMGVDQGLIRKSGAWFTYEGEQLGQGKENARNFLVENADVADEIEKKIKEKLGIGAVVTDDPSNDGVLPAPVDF
Arbovirus anti repeat: further read-out of Arbovirus anti, marked with its call; inhibition, %; measured here: 10K subset replicate screen; many hits read low in the repeat;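 first of two repeat runs on a subset; 0% = infected and 100% = uninfected wells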
* = called active by the depositor; u = inconclusive; x = no result given. Some of the compounds tested. The share of hits here may be higher or lower than overall.

SMILES	YopH inh	Mtb bLac sens	Mtb H37Rv	Arbovirus anti	RecA splice inh	others
CCOc1ccc(-c2c(C(=O)N/N=C/c3ccco3)nnn2-c2nonc2N)cc1	x	2	x	x	-2.5
COc1ccc(-c2cn[nH]c2-c2ccc(OCc3ccccc3)cc2O)cc1	x	5	0%	x	1.4
COc1ccc(/C=N/NC(=O)CN(C2=NS(=O)(=O)c3ccccc32)c2ccccc2)cc1	-27	-1	4%	-2	-5.1
C=C(C)c1cccc(C(C)(C)NC(=O)Nc2cccnc2)c1	x	-5	x	x	1.9
Cc1ccc(S(=O)(=O)Cc2ccc(C(=O)O)o2)cc1	-16	1	3%	5	-0.3
COC(=O)C1=C(C(=O)OC)C(c2cc(Cl)ccc2O)c2sc(=O)[nH]c2S1 (centres undefined)	-36	-12	-2%	2	-34
C/C(Cc1nnn(-c2cc(C)on2)n1)=N\O	x	7	4%	x	-2.1
CC(C)C[C@H](NC(=O)c1nc[nH]c1C(=O)NCc1ccc(CNC(=O)OC(C)(C)C)cc1)C(=O)OC(C)(C)C	x	47	x	x	0.8
Cc1c(Br)c(C(F)(F)F)nn1CC(=O)NCc1ccco1	x	1	-1%	0	2.5
CCOc1ccccc1OCC(=O)OCC(=O)NNC(=O)c1ccc([N+](=O)[O-])cc1	x	4	x	x	-0.7
S=C(NN=C(C1CC1)C1CC1)Nc1ccccc1	2	20	0%	-2	-3.1
COc1cc2ccccc2cc1C(=O)Nc1ccc(Cl)cn1	x	1	x	x	-0.6
COc1cc(C2=NOC(C(=O)Nc3cc(C)on3)C2)cc(OC)c1OC (centres undefined)	x	-5	-5%	x	0.8
COc1ccc(C(=O)N2CCN(c3ncccn3)CC2)cc1[N+](=O)[O-]	x	-3	x	x	-4.0
O=C(/C=C/c1ccc(F)cc1)NC(=S)Nc1ccccc1	x	3	x	x	-1.2
C[C@H](NC(=O)c1nc[nH]c1C(=O)N[C@@H](CCCCNC(=O)OC(C)(C)C)C(=O)OC(C)(C)C)c1ccccc1	x	-1	1%	x	-2.4
O=C(CSc1ccccc1C(=O)NCc1ccccc1)NC1CCCCCCC1	10	-2	1%	-8	-2.2
CC(C)C(=O)Nc1cccc2nsnc12	-29	-1	-1%	11	-2.0
CCn1c(CCNC(=O)c2ccc(Cl)cc2Cl)n[nH]c1=S	-22	-16	-3%	-5	-3.9
COCCn1c(=O)[nH]c(=O)c2c(C(F)(F)F)cc(-c3cccs3)nc21	-31	2	6%	-3	-7.7

5 records drawn at random from the list so far:
SMILES	YopH inh	Mtb bLac sens	Mtb H37Rv	Arbovirus anti	RecA splice inh	others
C/C(Cc1nnn(-c2cc(C)on2)n1)=N\O	x	7	4%	x	-2.1
CCn1c(CCNC(=O)c2ccc(Cl)cc2Cl)n[nH]c1=S	-22	-16	-3%	-5	-3.9
CCOc1ccccc1OCC(=O)OCC(=O)NNC(=O)c1ccc([N+](=O)[O-])cc1	x	4	x	x	-0.7
COC(=O)C1=C(C(=O)OC)C(c2cc(Cl)ccc2O)c2sc(=O)[nH]c2S1 (centres undefined)	-36	-12	-2%	2	-34
COCCn1c(=O)[nH]c(=O)c2c(C(F)(F)F)cc(-c3cccs3)nc21	-31	2	6%	-3	-7.7

Following part:
SMILES	YopH inh	Mtb bLac sens	Mtb H37Rv	Arbovirus anti	RecA splice inh	others
CCNc1nc(NCC)n2c(SCC(=O)N(CC)C3CCCCC3)nnc2n1	-18	-2	5%	-7	-0.7
CCN(CC)S(=O)(=O)c1ccc(Cl)c(NC(=O)COC(=O)c2cc(-c3ccccc3Cl)nc3ccccc23)c1	-23	0	1%	8	-0.3
Cc1cc(/C=N/O)c(C)n1-c1ccc(Br)cc1	-26	29	15%	3	6.9
Brc1cccc(OCCCCN2CCCCC2)c1	-24	-9	-2%	-24	-0.2
CCOC(=O)N1CCC(N(C(=O)Nc2ccc(Cl)c(Cl)c2)C(C)CC)CC1 (centres undefined)	0	78	u	-6	7.6
COc1ccccc1/C=C(\C)C(=O)c1c(C)cc(C)[nH]c1=O	x	2	x	x	-4.8
C=CCC(Nc1ccco1)c1ccccc1 (centres undefined)	-11	-7	11%	1	5.0
CNP1(NC)=Nc2nn(-c3ccccc3)c(N)c2C(c2ccccc2)=N1	8	5	-7%	-3	1.4
CC(C)NC(=O)C1CCN(C2CCN(C(=O)c3cc4c(s3)CCCCC4)CC2)CC1	x	-4	1%	-8	1.0
COC(=O)Cn1c(=NC(=O)C2CC2)sc2c(C)cc(C)cc21	-31	53	8%	-6	0.3	Arbovirus anti repeat=1
COC(=O)Nc1ccc([N+](=O)[O-])cc1OC	-17	-2	8%	3	-1.3
O=c1c2sccc2[nH]c(=S)n1Cc1ccccc1	-27	-1	-2%	4	2.3
CC1CCN(C2=NN3C(=N)/C(=C\c4ccc(OC(=O)c5ccco5)cc4)C(=O)N=C3S2)CC1	x	99	x	x	5.6
Cc1ccc2nc(SCC(=O)NC3CCCC3)[nH]c2c1	x	-12	x	x	0.6
NCC1CC2c3ccccc3C1c1ccccc12 (centres undefined)	x	3	x	x	-1.1
Nn1c(SCC(=O)Nc2nc3ccccc3s2)nncc1=O	-20	6	6%	3	-1.4
CCOC(=O)c1c(C)[nH]c(C(=O)Cn2c(=O)c3c(ncn3CC)n(Cc3ccccc3)c2=O)c1C	42	-1	0%	-7	3.5
COCc1nc2ccccc2n1CCc1ccccc1	x	5	x	x	1.9
COCCN1C(=O)/C(=C/c2ccc(OCc3ccc(C(=O)O)cc3)c(OC)c2)SC1=Nc1ccccc1	-16	74	5%	-11	1.4
COc1ccc(OCC(=O)N2c3ccc(C)cc3C3CN(C)CCC32)cc1 (centres undefined)	x	0	3%	2	1.3
COc1ccccc1C/C(N)=N/OC(=O)c1ccco1	x	-3	0%	-1	0.3
CC(C)C(=O)NNC(=O)c1cc2sccc2s1	x	-4	-9%	x	0.1
Cc1ccc(OC(=O)c2cccc(S(=O)(=O)N(C)C)c2)c(-n2nc3ccccc3n2)c1	7	20	2%	7	2.5
CC1CCN(S(=O)(=O)c2cccc(C(=O)Nc3nccs3)c2)CC1	8	-5	3%	8	1.6
CC(=O)Nc1ccc(NC(=O)CSc2ncc(C(=O)Nc3ccccc3)c(=O)n2C)cc1	x	52	x	x	31*
COc1nnc(-c2ccc(N3CCOCC3)c(NC(C)=O)c2)c2ccccc12	-40	4	-3%	9	-1.1
CCn1c(CCNC(=O)c2ccc(OC)c(OC)c2)nc2ccccc21	-22	-4	-10%	12	0.3	Arbovirus anti repeat=-3
O=C(O)Cn1cc(F)c(=O)[nH]c1=O	x	6	1%	x	-1.8
CC(C)C[C@@H](CN(C)N=O)N(C[C@H](Cc1ccccc1)N(CCc1ccccc1)N=O)N=O	x	-4	-5%	-1	4.1
Cc1ccc(C2=NN(S(C)(=O)=O)C(c3cccs3)C2)cc1 (centres undefined)	3	-8	-3%	17	-1.2
CC(C)C(NC(=O)c1ccccc1)c1nnc(SCC(=O)Nc2nccs2)n1C (centres undefined)	-101	-5	-3%	-3	0.8
CC1CCC(C(C)C)C2=C1C(C#N)(C#N)C(C#N)(C#N)C(c1ccccc1)N2 (centres undefined)	-32	3	16%	6	9.2
Nc1c(O)ccc2c1C(=O)c1ccccc1C2=O	-7	-4	u	-8	-3.0
CC(=O)c1cccc(NC(=O)Nc2ccc(C)cc2)c1	1	-5	3%	5	-0.5
COc1ccc(S(=O)(=O)N(C)CC(=O)N2CCC(C)CC2)cc1Cl	-50	6	3%	2	0.5
O=C(/C=C/c1ccccc1)N/C(=C\c1ccco1)C(=O)NCCO	-5	7	-11%	4	-1.1
CC(=O)NNc1cccc(Cl)n1	6	3	x	8	-2.1
CCOc1ccc(CN(C(=O)c2cccs2)C2CCS(=O)(=O)C2)cc1 (centres undefined)	x	5	x	x	1.6
CCNC(=S)N1CCN(CC(=O)Nc2ccc(OC)cc2)CC1	x	-3	4%	0	0.3
O=C(O)C1C(c2ccccc2)C(C(=O)Oc2ccccc2)C1c1ccccc1 (centres undefined)	-19	5	-15%	5	-4.1
COc1ccc(Cn2c(=O)[nH]c3cc(C(=O)N4CCN(c5ccccn5)CC4)ccc3c2=O)cc1	x	7	9%	8	-0.1
Cc1cc(C)n(-c2nc3c(c(=O)n(C)c(=O)n3C)n2C)n1	-36	5	-11%	10	0.0
CCCC(C)c1nnc(NC(=O)CCS(=O)(=O)Cc2ccccc2)s1 (centres undefined)	x	-2	x	x	0.6
Cc1ccc2c(c1)c1c(c(=O)n(-c3ccccc3C)c(=O)n1CC(=O)NCC1CCCO1)n2C (centres undefined)	x	5	x	x	-0.7
COc1cccc(OC)c1C(=O)NC(=S)Nc1ccc(N2CCOCC2)c(Cl)c1	x	-5	5%	9	0.6
CCCCOC(=O)Nc1nnc(/C=C/c2ccc(OC)cc2)s1	-19	4	8%	-9	-4.9
CC(C)CCNC(=O)c1ccc(-c2ccccc2)cc1	x	5	9%	0	1.8
COc1ccc(C2=NOC(Cn3nc(C(=O)NCc4cccc(C(F)(F)F)c4)cc3-c3ccccc3)C2)cc1 (centres undefined)	x	-7	x	x	-1.9
Cc1oc(-c2ccccc2F)nc1CS(=O)(=O)CC(=O)N1CCc2ccccc21	-11	-1	4%	-16	x
O=C(NCCc1ccccc1Cl)C1CCN(S(=O)(=O)c2cccs2)CC1	-13	5	8%	-4	2.8
Cn1c(=NC(=O)C2CC2)sc2cc(F)cc(F)c21	x	-4	-5%	9	-6.6	Arbovirus anti repeat=6
CCC(C)Nc1nc(Cl)nc(NCCOc2ccccc2)n1 (centres undefined)	-13	-3	7%	-6	-1.1
Cn1c(O)c(/C=N/N2CCCCC2)c(=O)[nH]c1=O	-16	-7	-2%	-4	0.5
O=C(NCc1ccco1)C1CCCN1C(=O)Nc1ccccc1[N+](=O)[O-] (centres undefined)	x	-2	x	x	-1.4
COc1cccc(C(=O)Nc2nc(-c3ccncc3)cs2)c1	x	77	1%	4	1.3
O=C(COc1ccc(C(=O)c2ccccc2)cc1)Nc1ncccc1O	x	84	x	x	10
COCCN(Cc1cc2cc(C)cc(C)c2nc1Cl)C(=O)Nc1ccccc1	-20	-3	5%	-16	-0.2
COc1ccccc1NC(=O)CSc1nnc(-c2ccc(C)cc2)o1	-42	-5	-16%	x	-4.4
CC1=C(C(=O)N2CCOCC2)C(c2c(C)cc(C)cc2C)NC(=S)N1 (centres undefined)	x	1	-9%	2	4.1
COc1ccccc1-c1ocnc1C(=O)N1CCN(C(=O)C(c2ccccc2)c2ccccc2)CC1	x	4	x	x	3.4

Other records follow:
SMILES	YopH inh	Mtb bLac sens	Mtb H37Rv	Arbovirus anti	RecA splice inh	others
O=C(Nc1cccc(-n2cnnn2)c1)c1cnccc1Cl	x	3	x	x	-2.8
CC(=O)Nc1ccc2nc(NC(=O)COc3ccc(C)cc3)sc2c1	x	-6	-1%	10	1.4
COc1ccc(N2CCN(S(=O)(=O)CCNC(=O)COc3ccc(Cl)cc3)CC2)cc1	x	2	x	x	1.8
CN1C(=O)/C(=C/c2cccc(Cl)c2)Sc2ccc(C(=O)NCc3cccnc3)cc21	x	100	u	-5	1.4
CN1C(=O)C(CC(=O)O)S/C1=N\N=C\c1ccc(O)cc1O (centres undefined)	x	-9	4%	x	-5.6
Cc1ccc(C(=O)Nc2ccn(Cc3ccc(F)cc3)n2)o1	-37	-7	3%	-25	-0.1
CC(=O)Nc1ccc(NC(=O)C2CCCN2C(=O)Nc2ccccc2[N+](=O)[O-])cc1 (centres undefined)	x	3	-6%	9	0.7
CC(C)(Cc1ccc(O)cc1)NC(=O)CC(=O)N=Nc1c(O)[nH]c2cc(Br)ccc12	x	2	-2%	7	6.1
COc1ccc(C(=O)NCc2nnc(SCC(=O)N3CCc4ccccc43)o2)cc1OC	-12	-1	7%	-1	-0.1
CCC(=O)Oc1ccc(C2N(C(=O)CC)CCN2S(=O)(=O)c2ccc(C)cc2)cc1OC (centres undefined)	-58	6	-6%	14	0.3
COc1cc(NS(=O)(=O)c2ccc(N/C=C\C(=O)c3ccc(F)cc3)cc2)nc(OC)n1	-8	11	-3%	12	-6.0
CNCc1ccccc1Sc1cc(O)ccc1O	21	-1	-1%	-9	x
CC(=O)NC(=S)c1c(N)n(Cc2ccccc2)c(=O)n(C)c1=O	4	5	4%	-7	33*	Arbovirus anti repeat=-3

Arranged by length of the SMILES (falling): part of the list above.
SMILES	YopH inh	Mtb bLac sens	Mtb H37Rv	Arbovirus anti	RecA splice inh	others
COc1cc(NS(=O)(=O)c2ccc(N/C=C\C(=O)c3ccc(F)cc3)cc2)nc(OC)n1	-8	11	-3%	12	-6.0
Cc1ccc(C(=O)Nc2ccn(Cc3ccc(F)cc3)n2)o1	-37	-7	3%	-25	-0.1
CNCc1ccccc1Sc1cc(O)ccc1O	21	-1	-1%	-9	x
